Assay outcomes (PubChem)
Kir21 block: inhibitors of mouse Kir2.1 inward-rectifier potassium channel; HEK293-Kir2.1, FluxOR thallium flux fluorescence; hits give low values; B-score at 10 µM; 0.85% of 310,000 active;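 active = fluorescence ratio B-score at or below minus 3 SD of library scores, with starting-brightness B-score within 2 SD, cut at about -4.2 in these data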;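 note: channel flux triggered by added potassium and thallium sulfate stimulus; B-score of peak minus minimum fluorescence over baseline after thallium stimulus; more negative B-score means stronger Kir2.1 block with less thallium influx; some compounds called inactive have numbers as strong as hits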
Target sequence (P35561 whole entry, looked up): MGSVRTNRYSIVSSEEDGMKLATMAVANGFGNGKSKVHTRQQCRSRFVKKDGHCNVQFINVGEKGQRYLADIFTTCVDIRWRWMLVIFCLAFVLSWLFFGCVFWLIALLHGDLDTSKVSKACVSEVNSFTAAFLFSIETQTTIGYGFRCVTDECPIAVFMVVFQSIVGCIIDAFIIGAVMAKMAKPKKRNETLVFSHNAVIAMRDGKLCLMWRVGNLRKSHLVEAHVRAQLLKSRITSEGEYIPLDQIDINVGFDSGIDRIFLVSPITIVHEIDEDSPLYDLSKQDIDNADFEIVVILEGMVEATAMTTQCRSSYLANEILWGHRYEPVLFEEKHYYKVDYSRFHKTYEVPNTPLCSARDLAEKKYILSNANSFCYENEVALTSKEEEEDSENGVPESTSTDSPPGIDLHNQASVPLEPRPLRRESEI
* marks the source's active call; other numbers are inactive results.

Start of the listing, in advance (4 entries):
No.	smiles	Kir21 block
1	C=CCn1c(C)csc1=Nc1ccc(C(C)=O)cc1	0.25
2	CCOc1ccc(N2CC(=O)N/C2=N\c2nc(C)cc(C)n2)cc1	-0.64
3	O=C(Nc1ccc2c(c1)OCO2)c1ccc(COc2ccc3c(c2)CCC3)o1	1.87
4	COc1ccc(-c2cn[nH]c2N)cc1	1.61

The whole of this part (from the top)
No.	smiles	Kir21 block
1	C=CCn1c(C)csc1=Nc1ccc(C(C)=O)cc1	0.25
2	CCOc1ccc(N2CC(=O)N/C2=N\c2nc(C)cc(C)n2)cc1	-0.64
3	O=C(Nc1ccc2c(c1)OCO2)c1ccc(COc2ccc3c(c2)CCC3)o1	1.87
4	COc1ccc(-c2cn[nH]c2N)cc1	1.61
5	CSc1nnc2c(n1)OC(c1ccccn1)N(C(C)=O)c1ccccc1-2 (stereo unspecified)	0.99
6	CC(C)N(Cc1ccccc1)C(=O)COC(=O)c1cnccn1	1.79
7	CCOc1ccccc1NC(=O)Cn1nc(-c2ccco2)ccc1=O	1.36
8	O=C(c1ccccc1F)N1CCN(c2ccc([N+](=O)[O-])c(N3CCOCC3)c2)CC1	-0.79
9	COc1ccccc1NC(=O)Nc1ccccc1Br	0.16
10	O=C(O)CSc1nnc(Cn2nnc3ccccc32)n1CCc1ccccc1	-1.83
11	COCCNC(=O)c1onc(CCl)c1C(=O)OC	0.58
12	CS(=O)(=O)Nc1ccc(S(=O)(=O)Nc2nccs2)cc1	-1.41
13	Cc1ccc2c(c1)C(C)(C)[C@]1(C)NC(=O)CCN21	0.34
14	COc1ccc(C)c2sc(=NC(=O)c3ccccc3)n(C)c12	3.91
15	COc1cc(CN2CCCC(CO)(Cc3cccc(Cl)c3)C2)cc(OC)c1O (stereo unspecified)	0.35
16	O=C(N/N=C\c1ccc([N+](=O)[O-])s1)C1COc2ccccc2O1 (stereo unspecified)	1.11
17	Cc1c(Cl)c([N+](=O)[O-])nn1CCCC(=O)Nc1cccc(Cl)c1	-1.61
18	c1ccc(-n2c(Sc3cnccn3)nnc2-c2cccs2)cc1	-3.09
19	O=C1CSc2ccc(C(=O)N3CCN(c4ccccn4)CC3)cc2N1	1.01
20	CCN1CCN(c2ccc([N+](=O)[O-])cc2S(=O)(=O)N2CCOCC2)CC1	-0.07
21	COC(=O)c1cnc(SCC(=O)c2ccccc2)n1C	0.43
22	O=C(CN1C(=O)C2C3C=CC(C3)C2C1=O)Nc1ccc(C(=O)O)cc1 (stereo unspecified)	-0.15
23	COC(C(=O)Nc1cc([N+](=O)[O-])ccc1C)c1ccccc1 (stereo unspecified)	-0.03
24	COc1ccc(/C=C/c2nnc(NC(=O)CSc3ccc(Cl)cc3)s2)cc1	1.25
25	CCOc1ccccc1NC(=O)CC1Nc2ccccc2NC1=O (stereo unspecified)	0.96
26	CCCCCC(=O)Nc1cccc(C2=NOC3(C2)C[C@H](C(N)=O)N(C(=O)[C@H]2CCC(=O)N2)C3)c1 (stereo partly specified)	-1.35
27	COc1ccccc1OCCn1cc(C(=O)O)c2ccccc21	-0.98
28	CC(=O)c1c(C)[nH]c(C(=O)OCC(=O)Nc2ccccc2Cl)c1C	0.05
29	Cc1cc(NC(=O)CS(=O)(=O)c2cn(Cc3ccc(F)cc3)c3ccccc23)no1	-0.1
30	CCOC(=O)/C=C1\SCC(=O)N1CC(=O)Nc1cccc(F)c1	0.15
31	Cc1cccc2cc(COC(=O)C(C)C)c(=O)[nH]c12	-0.48
32	CCOC(=O)c1cc(-c2ccc(F)cc2)n(CC(=O)NCc2cccnc2)c1C	-0.12
33	CSc1ccc(S(=O)(=O)Nc2cccc(F)c2)cc1	-1.52
34	O=C(CNC(=O)c1ccccc1F)c1ccc(Br)cc1	0.6
35	Cc1ccccc1CN(c1ccc(C(=O)N2CCCC2)cc1)S(C)(=O)=O	-0.19
36	O=C(/C=C/C=C/c1ccccc1)c1ccco1	-0.63
37	CC1=NNC(=O)C1CCC(=O)N/N=C/c1ccc(Cl)cc1 (stereo unspecified)	2.87
38	O=C(NCCCN1CCCC1=O)c1ccc2c(c1)NC(=O)c1ccccc1S2	0
39	C/C(=N\NC(=O)c1nnn(-c2nonc2N)c1C(C)C)c1cc(C)sc1C	1.04
40	Cc1ccc2c(CSc3nnc(C4CC4)n3N)cc(=O)oc2c1	1.05
41	Cc1cccc(Oc2ncnc(N)c2[N+](=O)[O-])c1	-0.84
42	Cc1cc2c(OCC(O)CNC3CCCCC3)cccc2[nH]1 (stereo unspecified)	1.02
43	CC(Oc1ccc2cc(-c3ccccc3)c(=O)oc2c1)C(=O)NCC1CCC(C(=O)O)CC1 (stereo unspecified)	1.16
44	O=C1CN=CN=CN1c1ccc(Cl)cc1Cl	1.43
45	CC(=O)c1c(C)[nH]c(C(=O)OCC(=O)Nc2ccc3[nH]c(=O)[nH]c3c2)c1C	0.05
46	O=C(NCCCN1CCOCC1)c1ccc(CS(=O)(=O)c2ccc(Br)cc2)o1	-0.41
47	CCOC(=O)C1CCN(C(c2cc3ccc(C)cc3[nH]c2=O)c2nnnn2C2CCCCC2)CC1 (stereo unspecified)	-0.25
48	Cc1ccc(F)c(NC(=O)CCc2ccccc2)c1	0.2
49	Cc1ccc(/C=C2/SC(=Nc3ccc(F)cc3)NC2=O)s1	0.37
50	COc1ccc(CN(Cc2cccn2C)C(=O)c2cc3cc(OC)ccc3[nH]2)cc1	-0.21

Continued.
No.	smiles	Kir21 block
51	CCN1CCN(C(=O)c2cc3ccc(OC)cc3[nH]2)CC1	-0.22
52	O=C(CCN1C(=O)c2ccccc2C1=O)Nc1ccc(-c2nc3ccccc3s2)cc1	0.14
53	C=CCn1c(CCNC(=O)c2cccs2)nnc1SCC(=O)c1ccc(Br)cc1	-2.74
54	N#Cc1ccc(NC(=O)COC(=O)CNC(=O)C2CCCCC2)cc1	1.03
55	COc1ccc(N(C(=O)c2cc3ccccc3oc2=O)C2C=CS(=O)(=O)C2)cc1 (stereo unspecified)	-1.34
56	Cc1c(N/C(=N/S(=O)(=O)c2ccc(F)cc2)c2ccccc2)c(=O)n(-c2ccccc2)n1C	-0.21
57	COc1cc(Sc2ccc(C)cc2)c(OC)cc1N	-0.15
58	Cc1nn(-c2cccc(Cl)c2)nc1C(=O)O	0.29
59	C=CCOc1ccc(CNc2nccs2)cc1	-0.64
60	Cc1ccc(N(C(C)C(=O)Nc2ccc3c(c2)OCO3)S(C)(=O)=O)cc1 (stereo unspecified)	1.06
61	COc1cccc(NC(=O)NCCc2ccc(Cl)cc2)c1	-1.38
62	Cc1cccc(CSC2=NCCN2C(=O)c2ccc(S(=O)(=O)N(C)C)cc2)c1	1.73
63	Cc1ccc(CN2CCN(Cc3ccc(O)cc3)CC2CCO)o1 (stereo unspecified)	-0.9
64	CC(C)C(=O)Nc1csc(C(F)(F)F)c1-c1ccccc1	-0.92
65	O=C(O)c1cc(-c2ccccc2)n(-c2ccc(Cl)cc2Cl)n1	0.08
66	O=C(NCC(c1cccnc1)N1CCN(c2ccc(F)cc2)CC1)c1ccco1 (stereo unspecified)	0.03
67	CCc1cccc(NC(=O)CCS(=O)(=O)c2cccc3nonc23)c1	-1.03
68	Cc1cc(NC(=O)CCC(=O)N(c2ccccc2)C(C(=O)NCC2CCCO2)c2cccnc2)no1 (stereo unspecified)	-1.43
69	CCn1c(-c2ccc3[nH]c(C)c(C)c3c2)n[nH]c1=S	0.3
70	O=C(COc1ccc(Cl)cc1)NCc1nnc(SCC(=O)N2CCCCC2)o1	-2.6
71	O=Cc1cn(-c2ccccc2)nc1-c1cc2ccccc2oc1=O	0.35
72	Cc1cc(=O)[nH]c(SCC(=O)Nc2ncc(S(=O)(=O)c3ccc([N+](=O)[O-])cc3)s2)n1	-1.17
73	COc1ccccc1N1CCN(c2nc(C)cc(C)c2C#N)CC1	0.1
74	COc1cc(/C=C/C(=O)Oc2coc(CSc3ncccn3)cc2=O)cc(OC)c1OC	1.98
75	COc1ccc(S(=O)(=O)Nc2ccccc2C)cc1	-2.47

An excerpt from the list above, as a working copy:
No.	smiles	Kir21 block
51	CCN1CCN(C(=O)c2cc3ccc(OC)cc3[nH]2)CC1	-0.22
52	O=C(CCN1C(=O)c2ccccc2C1=O)Nc1ccc(-c2nc3ccccc3s2)cc1	0.14

Back to the main list, starting 5 compounds before the break.
No.	smiles	Kir21 block
71	O=Cc1cn(-c2ccccc2)nc1-c1cc2ccccc2oc1=O	0.35
72	Cc1cc(=O)[nH]c(SCC(=O)Nc2ncc(S(=O)(=O)c3ccc([N+](=O)[O-])cc3)s2)n1	-1.17
73	COc1ccccc1N1CCN(c2nc(C)cc(C)c2C#N)CC1	0.1
74	COc1cc(/C=C/C(=O)Oc2coc(CSc3ncccn3)cc2=O)cc(OC)c1OC	1.98
75	COc1ccc(S(=O)(=O)Nc2ccccc2C)cc1	-2.47
76	CC(=O)Nc1ccc(S(=O)(=O)N2CCC(C(=O)Nc3nccs3)CC2)cc1	0.25
77	COc1ccccc1N1C(=O)c2ccccc2NC1c1cc(OC)c(OC)c(OC)c1 (stereo unspecified)	-0.37
78	c1csc(-c2nnc(Cc3cccc4ccccc34)o2)c1	-0.35
79	CCNC(=O)c1cc2c(=O)n3cccc(C)c3nc2n(Cc2ccc(C)cc2)c1=N	0.49
80	OCC1CCCCN1C(=S)Nc1ccc(Cl)cc1Cl (stereo unspecified)	-1.08
81	COc1ccc(C)cc1S(=O)(=O)N(CC(=O)N1CCOCC1)c1cc(C)cc(C)c1	1.69
82	O=C1C=C(NCc2ccccc2)CCC1	0.63
83	Cc1ccccc1COc1ccc(/C=C(\C#N)C(N)=O)cc1	0.36
84	O=C(c1ccc(Cl)cc1Cl)C1(n2cncn2)Oc2ccccc2C1O (stereo unspecified)	0.91
85	CCn1c(=O)c(C(=O)NCc2ccc(OC)c(OC)c2)c(O)c2ccccc21	0.33
86	COC(=O)c1ccc(Cl)c(NC(=O)CSc2ncn[nH]2)c1	-0.66
87	COc1ccc(NC(=O)Cc2cccc3ccccc23)cc1	2.2
88	Cn1c(SCC(=O)c2ccc(F)cc2)nnc1-c1ccccn1	0.4
89	O=C(CN1CC(c2ccccc2)CC1=O)Nc1ccc2c(c1)OCO2 (stereo unspecified)	-0.33
90	Cc1cc(C)c(S(=O)(=O)NCc2nc3nc(C)cc(C)n3n2)c(C)c1	-0.53
91	Cc1cc(=O)oc2cc(OCc3ccc(C(=O)OCC(=O)Nc4ccccc4OC(F)F)cc3)ccc12	0.12
92	C=CCOC(=O)C1=C[C@H](c2ccc(C(F)(F)F)cc2)C[C@H](OCCCCO)O1	0
93	CC(=O)Oc1cccc(N2C(=O)C3CC=C(Cl)CC3C2=O)c1 (stereo unspecified)	0.12
94	O=C(CNCc1ccccc1)Nc1ccccc1-c1ccccc1	-2.63
95	OCC1(CCOc2ccccc2)CCN(C2Cc3ccccc3C2)CC1	-2.95
96	Cc1ccc2nc(-c3cccs3)oc(=O)c2c1	-1.43
97	CCCc1[nH]nc2c1C(c1ccc(O)c(OC)c1)C(C#N)=C(N)O2 (stereo unspecified)	-0.66
98	CCOC(=O)c1ccc(COc2nc3ccccc3nc2-c2ccccc2NC(C)=O)o1	0.05
99	CCOc1cc(NC(=S)NCCCN2CCOCC2)c(OCC)cc1NC(=O)C(C)C	1.65
100	CCc1nc(SCC(=O)Nc2ccc([N+](=O)[O-])cc2)n[nH]1	0.17
101	CCN=C1SC(CC(=O)Nc2ccc(C(F)(F)F)cc2)C(=O)N1CC (stereo unspecified)	-0.32
102	Cc1ccc(-c2noc(=O)n2CC(=O)c2ccc(Cl)cc2)cc1	0.43
103	COc1ccc(NC(=O)CN2C(=O)C(C)Oc3ccccc32)c(OC)c1 (stereo unspecified)	0.77
104	COc1ccc(-c2cc(C(=O)Nc3c(Cl)cc(Cl)cc3Cl)c3ccccc3n2)cc1OC	-1.07
105	CCNC(=S)N/N=C(\C)c1cccc(OC)c1	0
106	O=C(CC1C(=O)NCCN1Cc1cccc(Oc2ccccc2)c1)NCc1cccnc1 (stereo unspecified)	0.01
107	FC(F)(F)c1nc2ccccc2[nH]1	1.77
108	COc1ccc(C(=O)NCC(=O)N/N=C/c2ccc(C)o2)cc1OC	-0.05
109	Cc1cccc(NC(=O)CSc2ccc(-c3ccco3)nn2)c1	-0.94
110	CCOC(=O)Cn1c(=O)oc2cc(S(=O)(=O)NC(C)(C)CC)ccc21	-0.83
111	CC(O)[C@H]1CNCCN1CCc1cc(C(F)(F)F)cc(C(F)(F)F)c1 (stereo partly specified)	-0.65
112	Cc1cc(Oc2ncccc2[N+](=O)[O-])c2cc(Cl)ccc2n1	-0.62
113	COc1ccc(N2CCN(C(c3ccccc3)c3nnnn3Cc3ccc(F)cc3)CC2)cc1 (stereo unspecified)	-0.05
114	Cc1noc(C)c1C(=O)N1CCc2ccccc2C1	1.51
115	CCc1c(C)sc(NC(=O)c2cc(CC(C)C)on2)c1C#N	-0.06
116	CCCCn1c(N)c(N(CCC(C)C)C(=O)C2=COCCO2)c(=O)[nH]c1=O	-0.21
117	COc1ccc(OC)c(NC(=O)NCc2ccc(F)cc2)c1	-1.41
118	N#C/C(=N/Nc1ccc(S(=O)(=O)N2CCOCC2)cc1)C(N)=O	-0.33
119	O=C(COc1ccc(NC(=O)c2ccccc2[N+](=O)[O-])cc1)c1ccc(F)cc1	2.14
120	C=CCn1c(CCc2ccccc2)nnc1SCC(=O)OC	-1.12
121	CCN1CCN(C(=O)NC2CC(=O)N(c3ccc(OC)cc3)C2)CC1 (stereo unspecified)	-0.73
122	CC(=O)c1cnc(Nc2cccc(C)c2)s1	-0.77
123	COc1cc(C(=O)N/C(=C\c2cn(C)c3ccccc23)C(=O)N2CCOCC2)cc(OC)c1OC	0.03
124	O=C(Nc1cccc([N+](=O)[O-])c1)c1ccc2nsnc2c1	1.36
125	CC(C)C(NC(=O)C1CCCCC1)C(=O)Nc1ccccn1 (stereo unspecified)	0.38
126	C/C(Cc1ccccc1)=N\NC(=O)CNC(=O)c1ccc(Cl)cc1Cl	0.04
127	COc1ccccc1N1CCN(C(CNS(=O)(=O)c2cccs2)c2cccnc2)CC1 (stereo unspecified)	-0.79

These rows are one share of the data, and most or all hits are left out here.
